VDR inh – vitamin D3 receptor (human) inhibition; VDR-SRC2-3 peptide fluorescence polarization, 2 h; Potency, µM, without a hit: max response, negative = inhibition, actives largely listed as inhibitors; 400,000 tested, 0.93% active; active = well fitted inhibition curve with a large enough effect; inconclusive = small, poorly fitted or top-dose-only effect, or another doubt; inactive = no such curve, though single readings can be large or run the other way; note: series mostly up to about 120 µM
Target sequence (P11473 whole entry, looked up): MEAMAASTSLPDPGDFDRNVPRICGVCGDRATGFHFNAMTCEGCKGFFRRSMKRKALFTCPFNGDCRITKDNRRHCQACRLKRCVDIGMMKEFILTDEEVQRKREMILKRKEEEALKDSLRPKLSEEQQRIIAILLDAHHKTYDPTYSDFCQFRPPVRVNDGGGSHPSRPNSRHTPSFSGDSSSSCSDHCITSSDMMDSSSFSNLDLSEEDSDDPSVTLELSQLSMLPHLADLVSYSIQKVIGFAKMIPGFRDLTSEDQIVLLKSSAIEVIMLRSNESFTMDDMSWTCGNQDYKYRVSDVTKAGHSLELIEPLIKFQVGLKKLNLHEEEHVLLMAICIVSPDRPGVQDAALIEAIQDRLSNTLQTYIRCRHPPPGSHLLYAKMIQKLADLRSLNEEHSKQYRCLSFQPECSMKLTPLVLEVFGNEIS
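Two reagent solutions held at 4 deg C in the dark were dispensed, compounds pinned at 23 nl, and the mixture incubated 2 h at room temperature. Read-out: fluorescence polarization of VDR–SRC2-3 peptide binding.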
Starred values were filed as active, the others as inactive; ? = inconclusive; & = joins results of further samples. % is set by controls: 0 for no effect and ±100 for the full control effect; potency is the fitted concentration of half-maximal effect.

Start of the data: the first 15 records, ahead of the listing:
SMILES	VDR inh
CCC(=O)NC(Nc1sc2c(c1C(=O)OC)CCCC2)(C(F)(F)F)C(F)(F)F	-2.0%
CCCCC(=O)/C=C/n1c(=S)oc2ccccc21	12.6µM*
COc1cc(NC(=O)N[C@@H](Cc2c[nH]c3ccccc23)C(=O)O)c(C(=O)O)cc1OC	-7.4%
COC(=O)c1ccccc1NC1=C/C(=N\S(=O)(=O)c2cccs2)c2ccccc2C1=O	?
COC(=O)c1ccccc1OCCCN(C)C	-9.5%
Clc1ccccc1-c1nn2c(-c3ccccn3)nnc2s1	6.4%
COc1cc(/C=C(\C#N)C(=O)NCC2CCCO2)c([N+](=O)[O-])cc1OC (configuration not stated)	2.7%
COc1ccc(-n2nc(C(=O)O)c3ccccc3c2=O)cc1	-9.1%
Cc1[nH][nH]c(=O)c1C(c1c(C)[nH][nH]c1=O)c1cn(Cc2ccc(Cl)c(Cl)c2)c2ccccc12	?
CC(=O)c1ccc(NC(=O)CSc2nc(Nc3ccccc3)nc(N3CCOCC3)n2)cc1	-1.3%
CCCN=C1NC(=O)C(CC(=O)NCCc2ccc(OC)c(OC)c2)S1 (configuration not stated)	-3.0%
COc1ccccc1C(=O)NNC(=O)C(=O)NC(C)(C)C	-13.3%
CCOC(=O)N1CCN(S(=O)(=O)c2cc(-c3nn4c(C)nnc4c4ccccc34)ccc2C)CC1	-4.9%
COc1cccc(CNn2cn[nH]c2=S)c1OCc1ccccc1	-1.9%
Cc1oc(-c2ccc(Cl)cc2)[n+]([O-])c1C	2.7%

Main list, previewed entries included:
SMILES	VDR inh
CCC(=O)NC(Nc1sc2c(c1C(=O)OC)CCCC2)(C(F)(F)F)C(F)(F)F	-2.0%
CCCCC(=O)/C=C/n1c(=S)oc2ccccc21	12.6µM*
COc1cc(NC(=O)N[C@@H](Cc2c[nH]c3ccccc23)C(=O)O)c(C(=O)O)cc1OC	-7.4%
COC(=O)c1ccccc1NC1=C/C(=N\S(=O)(=O)c2cccs2)c2ccccc2C1=O	?
COC(=O)c1ccccc1OCCCN(C)C	-9.5%
Clc1ccccc1-c1nn2c(-c3ccccn3)nnc2s1	6.4%
COc1cc(/C=C(\C#N)C(=O)NCC2CCCO2)c([N+](=O)[O-])cc1OC (configuration not stated)	2.7%
COc1ccc(-n2nc(C(=O)O)c3ccccc3c2=O)cc1	-9.1%
Cc1[nH][nH]c(=O)c1C(c1c(C)[nH][nH]c1=O)c1cn(Cc2ccc(Cl)c(Cl)c2)c2ccccc12	?
CC(=O)c1ccc(NC(=O)CSc2nc(Nc3ccccc3)nc(N3CCOCC3)n2)cc1	-1.3%
CCCN=C1NC(=O)C(CC(=O)NCCc2ccc(OC)c(OC)c2)S1 (configuration not stated)	-3.0%
COc1ccccc1C(=O)NNC(=O)C(=O)NC(C)(C)C	-13.3%
CCOC(=O)N1CCN(S(=O)(=O)c2cc(-c3nn4c(C)nnc4c4ccccc34)ccc2C)CC1	-4.9%
COc1cccc(CNn2cn[nH]c2=S)c1OCc1ccccc1	-1.9%
Cc1oc(-c2ccc(Cl)cc2)[n+]([O-])c1C	2.7%
O=C(O)C1CCCN1C(=O)NC1CCCCC1 (configuration not stated)	1.4%
Cc1nn(C(=O)c2c(F)cccc2F)c(C)c1S(=O)(=O)N1CCCCCC1	10.8%
CCN1C(=O)C(CC(=O)NCc2ccc(Cl)cc2)N(CC)C1=O (configuration not stated)	-8.8%
COc1nccc(C(F)(F)F)c1C(=O)NC(=O)Nc1ccccc1	-25.0%
CCCN(CCC)CCCNc1ccc(C(=O)Nc2cccc(OC)c2)cc1[N+](=O)[O-]	-8.1%
COCC(=O)N1CCC(Oc2ccc(C(=O)NCc3cc(C(C)C)no3)cc2)CC1	7.0%
COc1cc2c(cc1OC)-c1cc(NC3CCCCCC3)nc(=O)n1CC2	1.7%
CCn1c2ccccc2c2nnc(N3CCN(c4ccc(F)cc4)CC3)nc21	3.9%
C=CCNCCOCCOc1ccccc1-c1ccccc1	-17.7%
OC(c1cccc(Cl)c1)c1nccc2ccccc12 (configuration not stated)	-10.6%
SMILES	VDR inh
Cc1cc(C(=O)N/N=C\C(Br)=C\c2ccccc2)c(C)o1	?
COc1ccc(NS(=O)(=O)c2cc(NC(=O)c3cnc(C)cn3)ccc2N2CCCCC2)cc1	-8.7%
N#CCCn1nc(-c2ccc(Cl)cc2)cc1Nc1ccccc1NC(=O)C(F)(F)F	-24.0%
Cc1csc2nc(CSc3ccc(Cl)cc3)cn12	?
COc1ccc(N2Cc3cccc(C(=O)N4CCN(C(=O)c5ccco5)CC4)c3C2=O)cc1	-17.1%
Cc1ccc(C)c(S(=O)(=O)N2CCCOC2CNC(=O)C(=O)NC2CCCCC2)c1 (configuration not stated)	-11.2%
O=C(Nc1ccc(Nc2ccccc2)cc1)c1c(Cl)cccc1Cl	4.5%
CCOc1ccc(NC(=O)CN(C)C(=O)c2ccc3c(c2)C(=O)N(CCC(C)C)C3=O)cc1OCC	0.8%
CC(C)CCN1C(=O)c2ccc(C(=O)Nc3ccc(Br)cc3C(=O)O)cc2C1=O	79.4µM*
COc1cccc2cc(C(=O)NCCN3CCOCC3)oc12	4.3%
NC(=O)c1sc2nc3c(c(-c4ccc(Cl)cc4)c2c1N)CCCC3	-6.3%
O=C(c1cc2c(=O)oc3ccccc3c2s1)N1CCOCC1	-8.4%
CCCSc1nnc2c(n1)OC(CC)N(C(C)=O)c1ccccc1-2 (configuration not stated)	12.8%
O=C(NCCC1CCCCN1S(=O)(=O)c1ccc(Cl)cc1)C(=O)NCCN1CCOCC1 (configuration not stated)	8.4%
O=C1CSC2(C(=O)N(Cc3c(F)cccc3Cl)c3ccccc32)N1c1ccc(F)c(F)c1 (configuration not stated)	9.7%
CCN(CC)S(=O)(=O)c1cccc(NC(=O)COc2ccc(Cl)cc2Br)c1	-1.4%
COc1ccc(/C=C/c2nc(C#N)c(NC3CCCCC3)o2)cc1OC	1.8%
COc1ccccc1-c1sc2cc3c(cc2c1C#CCO)OCO3	0.1%
Cc1ccc(-n2c(Cn3nc(C(F)(F)F)cc3C)n[nH]c2=S)cc1	-23.1%
O=C(c1ccccc1)N1CCCOC1c1ccccc1 (configuration not stated)	-4.9%
Cc1ccc(Cl)cc1NC(=O)COC(=O)CCN1C(=O)C2CC=CCC2C1=O (configuration not stated)	-16.2%
Cc1occc1C(=O)NNC(=S)NCC(C)C	-2.8%
O=C(CC1OC(=O)c2ccccc21)NC1CCCCC1 (configuration not stated)	4.9%
Cc1ccc(C(=O)N2CCCC(CCC(=O)NCc3ccccc3F)C2)cn1 (configuration not stated)	-3.8%
Cc1ccc(C2=NNC(=O)C(c3ccc(Cl)cc3)C2)cc1 (configuration not stated)	-17.4%
SMILES	VDR inh
CCCc1cc(=O)oc2c3c(ccc12)OCN(Cc1ccccc1OC)C3	12.1%
COc1cccc(/C=N/n2c(COc3ccccc3)n[nH]c2=S)c1	-15.1%
COc1cccc(C2C(C(N)=O)=C(C)Nc3nc(CCCO)nn32)c1OC (configuration not stated)	-7.1%
O=C(N/N=C/c1cccnc1)c1ccc(S(=O)(=O)N2CCCCCC2)cc1	-4.1%
O=S1(=O)CCC(NCC2CCCO2)C1 (configuration not stated)	-4.4%
O=C(CCC(=O)N1CCOc2ccc(Cl)cc21)NCCCN1CCC(Cc2ccccc2)CC1	-22.1%
Cc1cn([C@H]2C[C@H](O)[C@@H](CCC(=O)NCCc3c[nH]c4ccccc34)O2)c(=O)[nH]c1=O	-0.8%
COc1ccc(OC)c(-n2nnnc2SCC(=O)N2CCN(C(=O)c3ccco3)CC2)c1	70.8µM*
C[C@@H]1ON(C)[C@H]2C[C@H]3c4cc(N5CCN(C)CC5)ccc4CCN3C(=O)[C@@H]12	4.2%
COc1ccc(CC(=O)Oc2ccc(Cl)cc2Br)cc1S(=O)(=O)N1CCOCC1	-18.9%
COc1ccc(CNC(=O)CSc2nnc3c(n2)[nH]c2ccccc23)cc1	-0.6%
COc1cccc(NC(=O)Nc2ccc(Cc3ccncc3)cc2)c1	10.4%
CCCSc1cc(NCCOC(=O)CCC)c([N+](=O)[O-])c2nonc12	?
CC12CC(NC(=O)N1c1cccc(C(=O)NCc3ccccn3)c1)c1ccccc1O2 (configuration not stated)	-16.8%
COc1ccc(C(NC(=O)/C=C\c2ccco2)c2ccc(OC)c(OC)c2)cc1 (configuration not stated)	-14.4%
Cc1cccc(NC(=O)COC(=O)c2ccc3c(=O)n4c(nc3c2)CCC4)c1	0.9%
CCOC(=O)Nc1ccc2c(CN(C)Cc3ccc(F)cc3)cc(=O)oc2c1	-0.2%
CN(C(=O)c1cccc(NC(=O)Cc2ccc(NC(=O)C3CCCN(C(=O)C4CCC4)C3)cc2)c1)C1CCCCC1 (configuration not stated)	-3.5%
Cc1ccc(NC(=O)CN2CCc3ccccc3C2)cc1F	-2.5%
Cc1ccc(NC(=O)C(=O)NCc2ccc(/C=C(/C#N)C(=O)NCc3cccnc3)o2)cc1C	-2.2%
CNC(=O)c1c(C)nn(-c2ccc(F)c(Cl)c2)c1-c1cc(C)on1	-19.9%
CCOC(=O)N1CCN(C(=O)c2ccc3c(c2)sc2nc(-c4ccccc4)cn23)CC1	-5.4%
COc1cc(NC(=O)C[n+]2ccc(C(=O)c3ccccc3)cc2)cc(OC)c1	15.6%
CC(C)CC(=O)Nc1cc([N+](=O)[O-])ccc1Cl	1.0%
CCOc1cc(C#N)c(NC(=O)c2cccc(S(=O)(=O)N3CCOCC3)c2)cc1OCC	-6.9%
SMILES	VDR inh
O=C(N/C(=C\c1ccco1)C(=O)N1CCOCC1)c1ccc([N+](=O)[O-])cc1	?
COCC(=O)Nc1ccc(S(=O)(=O)Nc2cc(C)nc(C)n2)cc1	5.4%
CCOC(=O)CC(NC(=O)C1c2ccccc2Oc2ccccc21)c1ccccc1Cl (configuration not stated)	?
C=CCNC(=O)CC1C(=O)NCCN1Cc1ccc(-c2ccccc2)cc1 (configuration not stated)	-1.9%
CCN(CC)CCCNC(=O)Cn1ncc2c(=O)oc3ccc(C)cc3c21	-1.9%
COc1ccccc1/C=C/C(=O)NCc1ccccn1	-5.9%
Cc1cc(C)c(NC(=O)CCc2c(C)nc3c(c(C)nn3C(C)(C)C)c2C)c(C)c1	13.7%
CCc1cccc2c(C(=O)C(F)(F)F)cn(CC(=O)N3CCOCC3)c12	3.3%
COc1ccccc1C(=O)NC1(C(F)(F)F)C(=O)Nc2c1c(=O)[nH]c(=O)n2-c1ccc(F)cc1 (configuration not stated)	-5.0%
CCN(CC)CCCNC(=O)Cc1ccc(NC(=O)N2CCCCc3ccccc32)cc1	-1.5%
O=[N+]([O-])c1cccc(S(=O)(=O)N2CCc3ccccc3C2)c1	-15.9%
COc1cc(NC(=O)CSc2ncc(S(=O)(=O)c3ccc(Br)cc3)c(=O)[nH]2)cc(OC)c1	-1.7%
Nc1c(C(=O)CSc2nnnn2-c2ccccc2)c(=O)[nH]c(=O)n1C1CC1	-10.7%
CC(=O)c1cccc(NC(=O)NNC(=O)c2ccc3ccccc3c2)c1	5.6%
CCCCCn1c(=O)[nH]c2cc(C(=O)N3CCN(c4cccc(Cl)c4)CC3)ccc2c1=O	-1.1%
Cn1nc(C(=O)N2CCN(c3ccccc3)CC2)c2c1-c1ccccc1S(=O)(=O)C2	10.6%&17.7%
COc1ccc(CCNc2nc(Cl)nc(NC(C)(C)CO)n2)cc1OC	-0.4%
CCN(CC)c1cc(NC2CCCCC2)c2c3c(onc13)-c1ccccc1C2=O	?
O=c1[nH]cnc(O)c1C(c1ccc2c(c1)OCO2)c1c(O)nc[nH]c1=O	7.5%
O=C(NCCc1ccccc1)c1ccc2c(c1)S(=O)(=O)N=C1CCCCCN12	-12.7%
Cc1cc(NC(=O)C(C)C)n(-c2nc3ccccc3s2)n1	-6.2%
Cc1ccc(OCC(O)Cn2c(=N)n(Cc3ccccc3)c3ccccc32)cc1 (configuration not stated)	8.1%
COc1cc(OC)nc(NC(=O)C(C)C)n1	-5.5%
CC(C)(O)[C@@H]1CC[C@@](C)(C2CC[C@]3(C)C2[C@H](O)CC2[C@@]4(C)CC[C@H](O)C(C)(C)C4[C@@H](O[C@H]4O[C@@H](CO)[C@H](O)[C@@H](O)[C@@H]4O[C@@H]4O[C@H](CO)[C@@H](O)[C@H](O)[C@H]4O)C[C@]23C)O1 (stereo in doubt)	-17.9%
O=C(NC1CC(=O)N(c2ccccc2)C1)c1ccco1 (configuration not stated)	4.1%
SMILES	VDR inh
CCN(CC)CCN1C(=O)C(O)=C(C(=O)c2cccs2)C1c1ccccn1 (configuration not stated)	-1.9%
COc1ccccc1Cc1nc2ccccc2nc1SCC(=O)Nc1cc(Cl)ccc1OC	3.2%
CCc1nc(SCC(N)=O)c2c(=O)n(C)c(=O)n(C)c2n1	-2.8%
COc1ccccc1CC(=O)OCC(=O)N1CCN(c2ccc(F)cc2)CC1	-14.3%
C=CCSc1ncnc2sc(C)c(C)c12	-10.9%
COc1cccc(NC(=O)c2nc(SC)ncc2Cl)c1	1.7%
CC(C)(C)N(NC(=O)c1ccccc1)C(=O)c1cccc(C(=O)N(NC(=O)c2ccccc2)C(C)(C)C)c1	9.7%
COc1ccc(CCNC(=O)c2cccc(S(=O)(=O)N3CCOCC3)c2)cc1OC	-14.4%
Cc1ccnc(NC(=O)c2ccc(OCC3CCCO3)cc2)c1 (configuration not stated)	6.1%
CN(CC(=O)Nc1ccc(F)c(F)c1)S(=O)(=O)c1cccc2cccnc12	2.8%
CC1CCN(CCCN2C(=O)C3C(C(=O)Nc4cccc(Cl)c4)C4C=CC3(O4)C2C(=O)NC2CCCCC2)CC1 (configuration not stated)	7.8%
COC(=O)C1=C(CS(=O)(=O)c2ccc(C)cc2C)NC(=O)NC1c1ccc(C)cc1 (configuration not stated)	-16.4%
CCN1CCN(C(=O)CN(CCc2ccccc2)S(C)(=O)=O)CC1	7.3%
Cc1ccc(-c2[nH][nH]c(=O)c(=O)c2N=Nc2ccccc2)cc1	-17.9%
COc1ccc2[nH]c(C(=O)N3CCc4ccccc4C3)c(C)c2c1	-6.3%

Bioassay records deposited in PubChem by National Center for Advancing Translational Sciences (NCATS).

An excerpt. The share of hits here may be higher or lower than overall.
